Bioassay records deposited in PubChem BioAssay by National Center for Advancing Translational Sciences (NCATS).
Rango-impB inh: Rango-importin beta binding inhibition; 340,000 tested, 0.031% active; Potency, µM (series often up to 92.2 µM), without a hit: at the highest dose inhibition of complex formation; Q14974; Rango CFP/YFP FRET sensor + importin beta, 45 min; AID 540263; active = rising FRET ratio curve, often small or poorly fitted; inconclusive = mostly compound fluorescence or quenching in the first reads; inactive = flat curves in all reads;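 further: potency means the concentration at half of the fitted maximal effect; 0% = DMSO wells and 100% = buffer wells lacking importin beta; nearly all actives have a fitted effect of over 15% in size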
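FRET biosensor (snurportin 1 IBB flanked by EYFP and cerulean), 50 nM, with compound 5 min, then 0.125 microM importin beta in PBS, 1 mM DTT, 0.02% Tween-20, 0.1% BSA. CFP/YFP ratio read after 45 min at room temperature; pre-read flags interference.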
miR-21 reporter: miR-21 reporter, rising signal; HeLa miR-21 FLuc reporter, luciferase, 48 h; Potency, µM (doses to about 38.3 µM), inactives show at the top dose reporter change, positive = more light; 340,000 tested, under 10 active; AID 2288; active = well fitted rising curve with a large enough effect; inconclusive = small, poorly fitted or top-dose-only effect; inactive = no such curve, though single readings can be large or run the other way;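 further: % of control where 0% means no effect; miR-21 action dims this reporter so a rising signal means less miR-21 action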
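HeLa cells endogenously expressing miR-21, stably carrying CMV-driven firefly luciferase with a downstream miR-21 binding site, 2000 cells/well. Titrations up to approximately 40 uM, 48 hours; luciferase luminescence read.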
Rango release inh: inhibition of RanGTP-driven Rango-importin beta dissociation; Potency, µM (doses to about 46.1 µM), for the others: top-dose activity change, negative = inhibition; Biochemical FRET Rango-importin beta, RanGTP-induced dissociation; 340,000 tested, 0.071% active; AID 540253; active means falling FRET ratio curve, often poorly fitted, with flat reads before Ran was added; inconclusive means other falling curves, or compound fluorescence or quenching; inactive means flat or rising ratio curve;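 further: potency means the concentration at half of the fitted maximal effect; % of control where 0% means no effect; nearly all actives have a fitted effect of over 45% in size; -100% = wells without RanGTP and RCC1; the record marks most hits as doubtful in a second field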
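Recombinant Rango FRET biosensor (EYFP–snurportin 1 IBB–cerulean CFP10) at 0.1 uM premixed with 0.25 uM importin beta in PBS, 1 mM DTT, 0.02% Tween-20, 0.1% BSA. Compound added 5 min; RanGTP-RCC1 (0.6 uM Ran, 2 mM GTP, 0.2 uM RCC1) then triggers release, read at 45 min.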
GLA inh pH 4.5: inhibitors of human alpha-galactosidase A at pH 4.5; purified enzyme, 4-MU-alpha-Gal fluorescence, pH 4.5; activity change, negative = inhibition, % at 105 µM; P06280; 230,000 tested, under 10 active; AID 1467; inconclusive = small, poorly fitted or top-dose-only inhibition, or a rising curve; inactive = flat fitted curve, though single readings scatter; no compound was filed as active;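 further: 0% = full activity with enzyme and -100% = basal without enzyme; dose as in the result columns while the protocol names 77 µM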
Target sequence (P06280 whole entry, looked up): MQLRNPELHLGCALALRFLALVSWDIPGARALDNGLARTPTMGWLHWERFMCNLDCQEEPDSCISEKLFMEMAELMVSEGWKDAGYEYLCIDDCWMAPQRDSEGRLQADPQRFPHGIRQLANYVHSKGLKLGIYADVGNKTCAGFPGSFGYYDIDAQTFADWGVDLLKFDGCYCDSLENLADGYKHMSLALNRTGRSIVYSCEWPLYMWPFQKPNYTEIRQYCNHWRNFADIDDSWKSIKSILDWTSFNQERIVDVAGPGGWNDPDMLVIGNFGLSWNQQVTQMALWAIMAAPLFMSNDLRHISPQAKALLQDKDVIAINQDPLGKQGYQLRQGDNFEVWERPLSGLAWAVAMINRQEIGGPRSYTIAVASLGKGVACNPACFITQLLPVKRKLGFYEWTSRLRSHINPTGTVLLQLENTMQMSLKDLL
The depositor's hits bear a star; ? = inconclusive; . = not tested or not shown; & = joins results of further samples. These rows are one share of the data. The share of hits here may be higher or lower than overall.

SMILES	Rango-impB inh	miR-21 reporter	Rango release inh	GLA inh pH 4.5
Cc1ccc2c(CNCc3ccco3)cc(=O)oc2c1	4.0%	-66.3%	-4.8%	-1.6
O=C(CSc1n[nH]c(=O)n1-c1ccc2c(c1)OCCO2)Nc1ccccc1	-1.8%	-2.5%	-9.2%	-4.1
CCn1c(Cc2ccc(OC)cc2)nnc1SCc1nc2ccccc2c(=O)[nH]1	0.4%	-0.2%	9.9%	-10.2
CCCn1c(SCC(=O)Nc2ccccc2N2CCOCC2)nc2c1c(=O)n(C)c(=O)n2C	?	-3.4%	4.8%	-16.1
CCN(Cc1ccc(OC)c(COC)c1)CC1CCCN(CCc2cccc(F)c2)C1 (centres undefined)	6.5%	9.7%	-3.2%	.
CN(C(=O)CN(C)S(=O)(=O)c1ccc(F)cc1)c1c(N)n(Cc2ccccc2)c(=O)[nH]c1=O	0.6%	.	-2.4%	.
Cc1cc2cc(CNC(=O)c3ccc(Br)o3)ccc2n1C	-0.2%	5.2%	-16.7%	2.7
Cc1ccc(NC(=O)CSc2nnc(-c3cccs3)o2)cc1S(=O)(=O)N(C)C	.	-75.1%	.	0.8
O=C(c1cc(N2CCCCC2)nc2ccccc12)N1CCOCC1	0.1%	-4.9%	7.2%	-2.5
CC(=O)N1CCc2cc(S(=O)(=O)CCC(=O)N3CCN(c4ccccc4F)CC3)ccc21	1.2%	-0.2%&-5.6%	-7.4%	.
CC(C)N(C(=O)[C@H]1C[C@H](CC(=O)NCCCN(C)C)C(=O)N2CCc3c([nH]c4ccc(Cl)cc34)[C@]12C)C(C)C	0.4%	.	8.2%	.
CC1=CC2=NC(=O)CC(C)(C(=O)N(CC(=O)NC3CCCC3)Cc3ccccc3)N2C=C1 (centres undefined)	0.0%	-1.1%	4.6%	.
O=C(COC(=O)CCC(=O)c1cccs1)NC(=O)c1ccc(OC(F)F)cc1	0.1%	-0.2%	-2.7%	3.7
Cc1ccc(NC(=S)NC(=O)c2cncc(Br)c2)c(C)c1	0.0%	.	15.9%	.
OCCC1CN(Cc2nc3ccccc3s2)CCN1CCc1ccccc1 (centres undefined)	-3.9%	-2.0%	1.9%	3.6
O=C(Nc1ccc(Br)cc1)c1ccc(Br)c(S(=O)(=O)Nc2cccnc2)c1	0.1%	-0.6%	-9.6%	-4.9
CC(=O)Nc1c(Cl)n(C(C)=O)c2ccccc12	-1.5%	-2.4%	-16.2%	0.0
N#CCCNS(=O)(=O)c1ccc(C(=O)OCC(=O)Nc2ccc3c(c2)OCO3)cc1	3.0%	.	2.4%	.
O=C(C1=C[C@H](c2ccc(C(F)(F)F)cc2)C[C@H](OCCCCO)O1)N1CCN(Cc2ccccc2)CC1	-0.3%	3.4%	0.2%	-6.1
COCC1CCCCC1OS(N)(=O)=O (centres undefined)	2.1%	-0.6%	25.3%	.
CN(C)/N=C1\C(=O)N(CN2CCN(c3ccccc3)CC2)c2ccccc21	-0.2%	.	-19.4%	.
COc1cc(OC)c2c(-c3cccc(/C=C/c4ccc(F)cc4)c3)cc(=O)oc2c1	0.3%	.	-6.0%	-8.0
O=c1c2c3c(sc2[nH]c(=S)n1Cc1ccco1)CCC3	-3.8%	-2.9%	0.2%	0.7
COCCNC(=O)c1onc(CSc2ccc(F)cc2)c1C(=O)NCCOC	-1.0%	-0.1%	-13.2%	0.8
CC(=O)NC(c1ccccc1)c1cc([N+](=O)[O-])c2cccnc2c1O (centres undefined)	-5.3%	0.5%	18.0%	-7.6
Carrying on.
SMILES	Rango-impB inh	miR-21 reporter	Rango release inh	GLA inh pH 4.5
CCN(CC)Cc1c(O)c(Cl)cc2c(C)cc(=O)oc12	?	-3.5%	?	?
COC(=O)c1sccc1NC(=O)CSc1ccc(Cl)cc1	1.4%	-18.4%	5.8%	1.0
COc1cc(/C=C(\CCC(=O)O)c2nc3ccccc3s2)ccc1OCC(=O)Nc1c(Cl)cccc1Cl	0.0%	.	-24.7%	.
CCC(OC(=O)C(CC(C)C)NC(=O)c1ccccc1)C(=O)Nc1nnc(C)s1 (centres undefined)	-0.7%	.	-9.7%	.
Nc1nc(NCC2CCCO2)nc(Nc2ccccc2)c1[N+](=O)[O-] (centres undefined)	4.0%	-8.1%	5.0%	-14.0
CCOc1ccccc1Nc1nc(N2CCCC2)nc(N2CCOCC2)n1	1.3%	.	-11.9%	.
Cc1nn(CCOc2ccccc2)c(=O)n1-c1ccccc1F	?	-47.3%	-24.6%	-1.4
Cc1nc(-c2ccc(NS(C)(=O)=O)cc2)cs1	-1.8%	-26.6%	7.5%	3.2
O=C(CSc1nn(-c2ccc(Cl)cc2)c(=S)s1)N1CCN(C(=O)c2ccco2)CC1	-1.6%	5.9%	5.3%	-5.4
COc1ccc(-c2cc(C)no2)cc1S(=O)(=O)NCc1ccc(OC(C)C)cc1	-1.3%	0.3%&5.9%	-0.7%	.
Cn1c(Cn2c(=O)sc3ccccc32)nnc1SCC(=O)Nc1cccc(Cl)c1	-1.2%	-7.3%	-4.0%	4.1
Cc1nc(CS(=O)(=O)c2ccccc2)cc(Sc2ccc(Cl)cc2Cl)n1	-3.1%	-8.0%	-11.9%	-11.1
Clc1ccc(/C=C/c2nc3ccccc3[nH]2)c(Cl)c1	-3.6%	?	-7.2%	?
CCc1ccc(-c2nc(SCC(=O)N(C)C3CCS(=O)(=O)C3)n[nH]2)cc1 (centres undefined)	-2.5%	.	13.8%	.
COc1cc(Cl)ccc1OCc1cc(C(=O)N2C[C@]3(C)C[C@H]2CC(C)(C)C3)no1	-0.1%	-30.1%	-12.3%	.
CC1=CC(C)(C)N(C(=O)CN2C(=O)c3ccccc3C2=O)c2ccccc21	-5.3%	-2.5%	1.6%	-7.7
O=C(N/C(=C/c1ccc2c(c1)OCO2)C(=O)N1CCOCC1)c1cccs1	-0.6%	-4.2%	2.7%	3.4
CCOC(=O)c1cc2c(ccn2-c2ccc(F)cc2)n1CC(=O)N1CCN(C(=O)c2ccco2)CC1	-3.0%	-5.0%	-11.0%	3.2
CNC(=S)N(CCc1c(C)[nH]c2ccccc12)Cc1ccco1	4.7%	3.1%	20.8%	-1.4
Cc1cc(C)nc(-n2nc(C)cc2NC(=O)c2ccc(S(=O)(=O)N3CCOCC3)cc2)n1	0.6%	0.7%	-17.9%	-22.8
O=C(CCNC(=O)c1ccccc1Cl)NC1=NCCS1	2.3%	-0.6%	-5.2%	3.5
Cc1cc(O)c(C)c(O)c1/C=N/NC(=O)c1cccnc1	?	20.4%	?	.
CCOC(=O)c1c(NC(=S)Nc2ccccc2)sc2c1CCN(CCc1ccccc1)C2	.	8.7%	.	-8.2
Fc1ccc(C2=CSC3=NCCN23)cc1	5.7%	3.8%	24.5%	6.3
COc1cc(OC)c2c(-c3ccccc3)cc(=O)oc2c1C(CC(=O)N1CCN(c2ccccc2)CC1)c1ccc2c(c1)OCO2 (centres undefined)	.	-5.9%	.	-7.2
Carrying on:
SMILES	Rango-impB inh	miR-21 reporter	Rango release inh	GLA inh pH 4.5
C[C@@H](O)c1nc2ccccc2n1N	4.7%	-8.1%	-9.8%	6.3
CC(/C=C1\SC(=O)N(CC(=O)Nc2cccc(O)c2)C1=O)=C\c1ccccc1	-4.3%	0.2%	2.5%	-14.5
CCCN(C(=O)c1cc(S(=O)(=O)N(C)c2ccc(OCC)cc2)ccc1C)C1CCS(=O)(=O)C1 (centres undefined)	-2.1%	.	1.0%	.
CCCCOc1ccc(S(=O)(=O)Nc2cc(OC)ccc2OC)cc1	-2.3%	4.4%	0.3%	5.1
O=[N+]([O-])c1cccc(-n2cccc2/C=N/Nc2nc(N3CCCCC3)nc(N3CCCCC3)n2)c1	2.5%	-3.6%	4.7%	0.7
Cc1ccc(-c2cc(C(=O)Nc3cc(C)on3)c3ccccc3n2)cc1	2.0%	2.4%	0.2%	-6.6
N#Cc1ccc(C23CC4(C2)[C@H](CN(P(=O)(c2ccccc2)c2ccccc2)[C@@H]4c2ccccc2)C3c2ccc(Cl)nc2)cc1 (some centres undefined)	10.8%	?	-8.1%	-13.3&-8.3
O=C(O)c1ccc(NC(=O)C2C3CCC(O3)C2C(=O)O)cc1 (centres undefined)	0.4%	-4.5%	-1.9%	.
CN(CC(=O)NCCN1CCN(Cc2ccccc2)CC1)S(=O)(=O)c1cccc2nsnc12	-0.5%	4.3%	13.1%	-8.0
CCCCCn1c(Sc2nc3ccccc3s2)nc2c1c(=O)[nH]c(=O)n2C	-4.3%	-9.3%	-0.1%	-3.6
COCCn1c(SCC(=O)NC(=O)NC(C)C)nc2ccccc21	-7.1%	-0.3%	-1.9%	6.7
CCCCc1cc(=O)oc2c(CN(CC)CC)c(O)c(Cl)cc12	?	0.0%	?	?
CN(CCO)C(=O)c1cccc2c1-c1ccccc1C2=O	-1.7%	-2.9%	-3.1%	5.8
Cc1cc(-c2csc(NC(=O)c3ccc(C#N)cc3)n2)c(C)n1Cc1ccccc1	-5.0%	-8.6%	-2.6%	-2.2
Cn1nc(C#N)c(=O)[nH]c1=O	0.7%	.	26.7%	.
Nc1ccc2ncccc2c1N	6.4%	-14.1%	-9.3%	-10.5
CC(C)CCCNc1nc(N2CCOCC2)nc(N2CCOCC2)n1	-0.9%	-6.0%	18.4%	3.0
Cc1nc(CCNC(=O)Cc2ccc(Cl)cc2)cs1	3.9%	-14.3%	-16.1%	-0.9
Cc1nc2ccccc2c(=O)n1C1CCCCCC1	-1.8%	-21.5%	10.5%	3.3
CN1C(=O)C2(C(C#N)=C(N)N(c3cc(Cl)cc(Cl)c3)C3=C2C(=O)CCC3)c2ccccc21 (centres undefined)	-1.4%	22.7%	-2.6%	-1.3
CC(C)Oc1ccc(C(CC(=O)O)Cc2ccccc2)cc1 (centres undefined)	4.1%	-1.8%	-13.3%	.
O=C(CSc1nc2ccccc2[nH]1)c1ccc(Cl)s1	0.4%	-30.9%	4.9%	-8.7
NS(=O)(=O)OCCCc1ccc(C(F)(F)F)cc1	0.3%	-15.6%	6.5%	.
CC(C)(C)c1ccc(S(=O)(=O)NCCOCC(F)(F)C(F)F)cc1	-4.5%	-4.9%	-5.5%	-10.0
O=c1c(-c2ccccc2)nnc2sc(COc3ccc(Br)cc3)nn12	4.5%	0.5%	3.3%	.
Continued.
SMILES	Rango-impB inh	miR-21 reporter	Rango release inh	GLA inh pH 4.5
O=C(/C=C/c1ccc(-c2ccccc2)o1)c1ccccc1	?	-59.9%	?	8.3
CC1CC(C)CN(S(=O)(=O)c2ccc(C(=O)NCCCn3ccnc3)cc2)C1 (centres undefined)	-4.7%	?	1.4%	-4.8
C=CCN1C(=O)C(O)(CC(=O)c2ccc(Cl)cc2)c2ccccc21 (centres undefined)	4.0%	-6.9%	10.8%	4.6
CNc1nc2c(c(=O)n(C)c(=O)n2C)n1CCCc1ccccc1	0.6%	18.8%	?	.
CN1CCC(N(C)CC(=O)Nc2cccc(Oc3ccccc3)c2)CC1	-0.6%	-4.7%	1.6%	-2.9
O=C(CSc1nnc(Nc2ccccc2)s1)NCc1ccco1	-4.5%	-7.0%	-4.7%	5.4
CN(C)C(CNc1ncnc2sc3c(c12)CCCCC3)c1ccco1 (centres undefined)	-0.4%	-18.4%	6.8%	-18.9
CCN(CC(=O)Nc1ccccc1OC)C(=O)CSCc1ccc(C)cc1	-2.1%	.	0.2%	.
CCC(COC)NC(=O)CCc1nnc(Cc2cccc(C(F)(F)F)c2)o1 (centres undefined)	0.6%	-36.3%	-7.8%	-7.2

4 consecutive entries from above, quoted:
SMILES	Rango-impB inh	miR-21 reporter	Rango release inh	GLA inh pH 4.5
O=C(CSc1nnc(Nc2ccccc2)s1)NCc1ccco1	-4.5%	-7.0%	-4.7%	5.4
CN(C)C(CNc1ncnc2sc3c(c12)CCCCC3)c1ccco1 (centres undefined)	-0.4%	-18.4%	6.8%	-18.9
CCN(CC(=O)Nc1ccccc1OC)C(=O)CSCc1ccc(C)cc1	-2.1%	.	0.2%	.
CCC(COC)NC(=O)CCc1nnc(Cc2cccc(C(F)(F)F)c2)o1 (centres undefined)	0.6%	-36.3%	-7.8%	-7.2
